High-throughput results deposited in PubChem BioAssay by Broad Institute.
NOMO-1 viab = STK33 inhibitor candidate reducing NOMO-1 cell viability; NOMO-1 AML viability, CellTiter-Glo luminescence, 72 h; inhibition, % (test concentration not listed); 7.5% of 37,000 active; AID 2330;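 active means most replicates above 80%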;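 further: wells of about 30 µL received 25 nL stock; 0% = median of vehicle wells and 100% = reference inhibitor level; the first replicate is given; inactives centre near 10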
Numbers without * were called inactive. Some of the compounds tested (hit frequency here may not be typical).

mol | NOMO-1 viab
C[C@H]1CN([C@@H](C)CO)C(=O)c2cc(NS(=O)(=O)c3ccccc3)ccc2O[C@@H]1CN(C)Cc1ccc(Oc2ccccc2)cc1 | 68
COc1cc(-c2coc3cc(OCc4ccccc4)c(OC)c(O)c3c2=O)cc(O)c1OC | 28
Nc1nc(SCC(=O)c2ccc3c(c2)OCCO3)n[nH]1 | 21
COC(=O)C(O)(c1ccc(NC(=S)NC(=O)c2ccc(Cl)cc2Cl)c(OC)c1)C(F)(F)F (stereo unspecified) | 124*
C[C@@H]1CN([C@H](C)CO)C(=O)c2cccc(NS(=O)(=O)c3ccccc3)c2O[C@H]1CN(C)C(=O)NC1CCCCC1 | 19
COc1ccc(S(=O)(=O)Nc2cccc3c2O[C@@H](CN(C)S(C)(=O)=O)[C@@H](C)CN([C@@H](C)CO)C3=O)cc1 | 7
COc1ccc(NC(=O)Nc2ccc3c(c2)CC(=O)N([C@@H](C)CO)C[C@H](C)[C@H](CN(C)S(C)(=O)=O)O3)cc1 | -8
C=CCN1CCc2nc(N)sc2CC1 | 20
COc1cccc(NC(=O)CC2COc3ccccc3O2)c1 (stereo unspecified) | 33

Rewritten as labelled records: part of the list above
Structure: Nc1nc(SCC(=O)c2ccc3c(c2)OCCO3)n[nH]1
  NOMO-1 viab: 21

Structure: COC(=O)C(O)(c1ccc(NC(=S)NC(=O)c2ccc(Cl)cc2Cl)c(OC)c1)C(F)(F)F (stereo unspecified)
  NOMO-1 viab: 124*

Structure: C[C@@H]1CN([C@H](C)CO)C(=O)c2cccc(NS(=O)(=O)c3ccccc3)c2O[C@H]1CN(C)C(=O)NC1CCCCC1
  NOMO-1 viab: 19

Structure: COc1ccc(S(=O)(=O)Nc2cccc3c2O[C@@H](CN(C)S(C)(=O)=O)[C@@H](C)CN([C@@H](C)CO)C3=O)cc1
  NOMO-1 viab: 7
